High-throughput results (PubChem BioAssay)
Cruzain inh Det: cruzain (T. cruzi) inhibition with detergent | Potency, µM, without a hit: max response, negative = inhibition, hits mostly inhibitors | 0.43% of 200,000 active | purified cruzain, Z-FR-AMC fluorescence, 0.01% Triton; active = well fitted curve in the direction sought with a large enough effect; inconclusive = small, poorly fitted or top-dose-only effect, or another doubt; inactive = no such curve, though single readings can be large; an effect the other way counts as inactive or inconclusive;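 note: plate controls were neutral wells for no effect and buffer without enzyme for full effect; nearly all actives have a fitted effect of over 40% in size; top concentration of the series not given in the record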
Target sequence (P25779 123-467 limits assumed): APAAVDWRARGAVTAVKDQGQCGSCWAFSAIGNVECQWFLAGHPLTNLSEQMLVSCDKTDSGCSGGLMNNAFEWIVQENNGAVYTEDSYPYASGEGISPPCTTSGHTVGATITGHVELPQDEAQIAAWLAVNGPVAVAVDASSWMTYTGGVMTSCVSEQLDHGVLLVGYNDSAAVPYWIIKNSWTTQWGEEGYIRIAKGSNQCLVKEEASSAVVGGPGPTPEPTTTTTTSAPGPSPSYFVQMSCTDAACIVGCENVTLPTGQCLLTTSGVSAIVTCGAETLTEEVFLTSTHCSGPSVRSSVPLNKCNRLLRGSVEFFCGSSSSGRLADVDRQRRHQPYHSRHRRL
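Steps: dispense cruzain (1.5 nM final) in acetate buffer pH 5.5 with DTT and 0.01% Triton X-100; pin-transfer compounds; incubate 15 min RT; add Z-FR-AMC (2 uM final); read fluorescence every 30 s, using the 60 s intensity change.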
LASV entry inh: Lassa virus entry inhibition | Lassa virus pseudotype entry inhibition, cell reporter; control for the full effect not named in the record | Potency, µM (highest dose often 37.9 µM), without a hit: at the highest dose activity change, negative = inhibition, most hits filed as inhibitors | 1.2% of 300,000 active; active means well fitted inhibition curve with a large enough effect; inconclusive means small, poorly fitted or top-dose-only effect, or effect the other way; inactive means flat fitted curve, though single readings scatter; tested in HEK293 cells; note: % is set by controls: 0 for no effect and ±100 for the full control effect; nearly all actives have a fitted effect of over 50% in size; luciferase read-out
SARS PLpro yeast: SARS-CoV PLP inhibition in yeast | S. cerevisiae expressing SARS-CoV PLpro, growth rescue; control for the full effect not named in the record | Potency, µM (doses to about 32.9 µM), inactives show at the top dose activity, positive = growth rescue | 0.19% of 330,000 active | AID 485353; note: 0% is about no effect; nearly all actives have a fitted effect of over 55% in size; growth read by luminescence after 48 h
MARV entry inh: blocks Marburg virus binding to or entry into cells. Marburg virus pseudotyped entry inhibition, cell reporter; control for the full effect not named in the record; about a third of the inactives were read at about 46 µM. Potency, µM (highest dose often 37.8 µM), inactives show top-dose activity change, negative = inhibition, actives largely listed as inhibitors. 1.8% of 300,000 active; active = well fitted inhibition curve with a large enough effect; inconclusive = small, poorly fitted or top-dose-only effect, or effect the other way; inactive = flat fitted curve, though single readings scatter; tested in HEK293 cells; about a fifth of its hits are not listed in these tables; note: % is set by controls: 0 for no effect and ±100 for the full control effect; luciferase read-out
Cruzain noTriton: cruzain (T. cruzi) inhibition without detergent | P25779 | purified cruzain, Z-FR-AMC fluorescence, no detergent | Potency, µM, without a hit: max response, negative = inhibition, usual class: inhibitors | 2.3% of 200,000 active; active = well fitted curve in the direction sought with a large enough effect; inconclusive = small, poorly fitted or top-dose-only effect, or another doubt; inactive = no such curve, though single readings can be large; an effect the other way counts as inactive or inconclusive;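 note: plate controls were enzyme without inhibitor for no effect and buffer without enzyme for full effect; nearly all actives have a fitted effect of over 40% in size; top concentration of the series not given in the record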
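Detergent-free condition (0.00005% Triton X-100) in acetate buffer pH 5.5 with DTT. 1.5 nM enzyme and compound were pre-mixed 15 min, then 2 uM Z-FR-AMC substrate added; reaction progress from fluorescence change between first and third reads (60 s).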
StopGo reporter: FMDV 2A StopGo reporter, luciferase signal; 1.2% of 410,000 active; AID 1159524; human cells with a luciferase reporter of 2A StopGo recoding; control for the full effect not named in the record; Potency, µM (doses to about 57.9 µM), without a hit: at the highest dose signal change, negative = less light; active = well fitted falling curve with a large enough effect; inconclusive = small, poorly fitted or top-dose-only effect; inactive = no such curve, though single readings can be large or run the other way; tested in HEK293T cells; note: % is set by controls: 0 for no effect and ±100 for the full control effect; nearly all actives have a fitted effect of over 45% in size; luciferase light after 4 h
NS1 function inh: blocks influenza NS1 protein function | S. cerevisiae slowed by influenza A NS1, growth recovery by OD600 | Potency, µM (series often up to 46.1 µM), for the others: at the highest dose activity, positive = more growth | 0.4% of 270,000 active; note: actives are rising curves; nearly all actives have a fitted effect of over 50% in size
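Recovery from NS1-induced slow growth read by OD600 in budding yeast switched to galactose assay medium (pH 6.0, -URA) at 1:100 dilution. Compound 23 nl per well; the matching strain lacking NS1 serves as control.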
RE007 growth inh: less growth of the S. pombe RE007 Vpr strain. 0.21% of 360,000 active. Potency, µM (highest dose often 92.2 µM), without a hit: at the top dose activity change, negative = less growth. S. pombe RE007 Vpr strain, BacTiter-Glo ATP luminescence, 24 h; control for the full effect not named in the record. AID 651644; active = well fitted falling curve with a large enough effect; inconclusive = small, poorly fitted or top-dose-only effect; inactive = no such curve, though single readings can be large or run the other way;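 note: % is set by controls: 0 for no effect and ±100 for the full control effect; nearly all actives have a fitted effect of over 50% in size; the assay follows cell death caused by Vpr and the record does not say whether a fall means rescue or toxicity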
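Fission yeast strain RE007, carrying one chromosomally integrated HIV-1 vpr copy, was seeded at OD 0.01 in PMG+AL medium with 23 nL pinned compound. After 24 h at 30 °C and 99% humidity, viability was read by BacTiter-Glo luminescence.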
Numbers without * were called inactive; & = joins results of further samples; [ ] = remark or other dose. Unless noted, calls come from the whole dose curve; as a rule, active means well fitted rising curve with a large enough effect; inconclusive means small, poorly fitted or top-dose-only effect; inactive means no such curve, though single readings can be large or run the other way. Potency is the fitted concentration of half-maximal effect.

`CC(C(=O)Nc1cccc(S(=O)(=O)N2CCOCC2)c1)N1CCN(C)CC1` (stereo not given) gave LASV entry inh 10%, SARS PLpro yeast 1%, MARV entry inh 15%, StopGo reporter -12%, NS1 function inh 8% and RE007 growth inh 0%.
For N=c1sccn1CC(=O)Nc1cc(Cl)ccc1[N+](=O)[O-] the results were LASV entry inh 6%, SARS PLpro yeast 2%, MARV entry inh -15%[46.1 µM], StopGo reporter -8%, NS1 function inh 4% and RE007 growth inh 27%.
For CCCn1nnc(NC(=O)C(c2ccccc2)c2ccccc2)n1 the results were Cruzain inh Det 1.6%, LASV entry inh 14%, SARS PLpro yeast 2%, MARV entry inh -9%, Cruzain noTriton -6%, StopGo reporter -4%, NS1 function inh 2% and RE007 growth inh 5%.
O=S(=O)(NCCC1CC1(Cl)Cl)c1ccccc1 (stereo not given) was read as LASV entry inh 8%, SARS PLpro yeast 0%, MARV entry inh -11%[14.2 µM], StopGo reporter 75%[activator], NS1 function inh -1% and RE007 growth inh -4%.
Screening Cc1cccc(CSc2ccc3nnc(CCNS(=O)(=O)c4ccccc4)n3n2)c1 returned Cruzain inh Det -5.8%, LASV entry inh -13%[46.1 µM], Cruzain noTriton inconclusive and StopGo reporter 9%.
For CCOc1ccc(N(CCCCO)C(=S)NC(=O)c2ccc(C)c(Br)c2)cc1 the results were LASV entry inh inconclusive, SARS PLpro yeast -2%, MARV entry inh 1%[46.1 µM], StopGo reporter -12%, NS1 function inh 6% and RE007 growth inh 17%.
`CC(=O)Nc1ccc(NC(=O)C2CCCN(S(=O)(=O)c3ccc(Cl)cc3)C2)cc1` (stereo not given) gave SARS PLpro yeast -2%, MARV entry inh 21%[46.1 µM], StopGo reporter 7%, NS1 function inh 8% and RE007 growth inh -7%.
`CC(NC(=O)CSc1ncccn1)c1ccccc1` (stereo not given) gave Cruzain inh Det -2.1%, LASV entry inh -3%, SARS PLpro yeast 5%, MARV entry inh -2%, Cruzain noTriton 7%, NS1 function inh -9% and RE007 growth inh -10%.
For CCC(=O)N1CC2(CC(c3cccc(NC(=O)CC(c4ccccc4)c4ccccc4)c3)=NO2)C[C@H]1C(N)=O (stereo not given in full) the results were SARS PLpro yeast -2%, StopGo reporter 0%, NS1 function inh -5% and RE007 growth inh -3%.
For Cc1ccc(S(=O)(=O)NNC(=O)c2cc(C)cs2)cc1 the results were LASV entry inh -22%, SARS PLpro yeast 0%, MARV entry inh -16%, StopGo reporter 52%[activator], NS1 function inh 3% and RE007 growth inh 7%.
For CCC(C)n1c(NC(=O)c2ccccc2)c(C#N)c2nc3ccccc3nc21 (stereo not given) the results were Cruzain inh Det -14%, LASV entry inh inconclusive, SARS PLpro yeast -25%, MARV entry inh inconclusive, Cruzain noTriton inconclusive, StopGo reporter 11µM*, NS1 function inh 4% and RE007 growth inh 1%.
Screening O=C(CCCN1C(=O)/C(=C\c2ccco2)SC1=S)Nc1ccc2ccccc2c1 returned Cruzain inh Det -7.9%, LASV entry inh inconclusive, SARS PLpro yeast -3%, MARV entry inh inconclusive, Cruzain noTriton inconclusive, StopGo reporter -16%, NS1 function inh 25% and RE007 growth inh -16%.
Screening O=C(/C=C/c1ccccc1[N+](=O)[O-])NCCCn1ccnc1 returned LASV entry inh 6%, SARS PLpro yeast 0%, MARV entry inh -12%[46.1 µM], StopGo reporter 1%, NS1 function inh -1% and RE007 growth inh -10%.
For Cc1ccccc1/C=C1\OC(=O)c2ccccc21 the results were Cruzain inh Det 1.2%, LASV entry inh -6%, SARS PLpro yeast 4%, MARV entry inh 17%, Cruzain noTriton 4%, StopGo reporter 59%[activator], NS1 function inh -50% and RE007 growth inh -2%.
Screening O=S(=O)(NCC1CCCO1)c1ccc2ccccc2c1 (stereo not given) returned Cruzain inh Det 0.1%, LASV entry inh 5%, SARS PLpro yeast 0%, MARV entry inh -9%, Cruzain noTriton 1%, NS1 function inh -24% and RE007 growth inh -2%.
C=CCn1c(=S)[nH]c2ccccc2c1=O was read as Cruzain inh Det -1.9%, LASV entry inh 27%, SARS PLpro yeast inconclusive, MARV entry inh -6%&-6%, Cruzain noTriton -5%, StopGo reporter 19%, NS1 function inh 5% and RE007 growth inh 2%.
COc1ccccc1C(=O)N1C(CC(=O)Nc2cc(Cl)ccc2C)C(=O)NC2CCCCC21 (stereo not given) was read as Cruzain inh Det 7.4%, LASV entry inh 12%, SARS PLpro yeast 13%, MARV entry inh inconclusive, Cruzain noTriton inconclusive, NS1 function inh 7% and RE007 growth inh 6%.
Screening CC(C)C(=O)NC(c1ccc(Cl)cc1Cl)c1ccc2cccnc2c1O (stereo not given) returned SARS PLpro yeast inconclusive, StopGo reporter 24%, NS1 function inh -128% and RE007 growth inh inconclusive.
CC(C)OC(=O)CSc1nc2cc3c(cc2cc1C#N)OCO3 was read as Cruzain inh Det -1.1%, LASV entry inh inconclusive, SARS PLpro yeast 7%, MARV entry inh inconclusive, Cruzain noTriton -19%, StopGo reporter 11%, NS1 function inh 10% and RE007 growth inh 2%.
CCC(C(=O)NCc1ccc(F)cc1)N(Cc1ccco1)C(=O)c1snc(C(N)=O)c1N (stereo not given) was read as Cruzain inh Det -1.6%, LASV entry inh 5%, SARS PLpro yeast 9%, MARV entry inh -1%&13%, Cruzain noTriton -8%, StopGo reporter -12%, NS1 function inh -8% and RE007 growth inh -3%.
For COCCn1c(SCC(=O)Nc2cc(C)on2)nc2c(c1=O)SC(C)C2 (stereo not given) the results were LASV entry inh -8%, SARS PLpro yeast 0%, MARV entry inh -12%[46.1 µM], StopGo reporter 16%, NS1 function inh -14% and RE007 growth inh -10%.
For Cc1ccc(C(=O)N2c3ccc(F)cc3CCC2C)o1 (stereo not given) the results were Cruzain inh Det 2.1%, LASV entry inh -11%, SARS PLpro yeast -12%, MARV entry inh -2%, Cruzain noTriton -4%, StopGo reporter -26%, NS1 function inh 1% and RE007 growth inh 16%.
Cc1cc(NCc2ccncc2)ccc1Br was read as SARS PLpro yeast -1%, StopGo reporter 10%, NS1 function inh 1% and RE007 growth inh -8%.
For O=C(CCC(=O)NC1CCCCCCC1)Nc1nnc(C(F)(F)F)s1 the results were Cruzain inh Det 0.4%, LASV entry inh 0%, SARS PLpro yeast 6%, MARV entry inh -17%, Cruzain noTriton -4%, StopGo reporter 10%, NS1 function inh -2% and RE007 growth inh 10%.
`COc1cc(C(=O)O[C@H]2C/C(C)=C/CC[C@@]3(C)O[C@@H]3[C@H](O)[C@@H]2C(C)C)cc(OC)c1OC` gave SARS PLpro yeast -1%, StopGo reporter -27%, NS1 function inh -10% and RE007 growth inh -3%.
`COc1cc(CN2C(=S)NC(C)(C)CC2(C)O)cc(OC)c1` (stereo not given) gave Cruzain inh Det -4.0%, LASV entry inh 2%, SARS PLpro yeast 16%, MARV entry inh -22%, Cruzain noTriton 11%, StopGo reporter 20%, NS1 function inh 0% and RE007 growth inh -28%.
For Cc1ccc(S(=O)(=O)N(C)c2ccc(OC(=O)CN3C(=O)NC4(CCCC4)C3=O)cc2)cc1 the results were LASV entry inh -11%, SARS PLpro yeast -1%, MARV entry inh 25%[46.1 µM], StopGo reporter 49%[activator] and RE007 growth inh -6%.
Screening N/C(Cc1ccc([N+](=O)[O-])cc1)=N\OC(=O)COc1ccc2ccccc2c1 returned Cruzain inh Det -11%, LASV entry inh 11%, SARS PLpro yeast 20%, MARV entry inh 1%, Cruzain noTriton 7%, NS1 function inh -62% and RE007 growth inh 0%.
For CCS(=O)(=O)CCSc1nc(C)cc(C)n1 the results were Cruzain inh Det 2.0%, LASV entry inh 3%, SARS PLpro yeast 0%, MARV entry inh inconclusive, Cruzain noTriton -1%, StopGo reporter 3%, NS1 function inh 2% and RE007 growth inh -12%.
For CC(C)[C@H](NC(=O)OCc1ccccc1)C(=O)OCC(=O)Nc1c(F)cccc1F the results were Cruzain inh Det 14µM*, LASV entry inh -12%, SARS PLpro yeast -12%, MARV entry inh -15%, Cruzain noTriton inconclusive, StopGo reporter 10%, NS1 function inh -31% and RE007 growth inh 4%.
Screening COc1cccc(C2=NOC(C(=O)NCc3cccs3)C2)c1 (stereo not given) returned Cruzain inh Det 5.0%, LASV entry inh -22%, SARS PLpro yeast -22%, MARV entry inh inconclusive, Cruzain noTriton -2%, StopGo reporter 55%[activator], NS1 function inh -17% and RE007 growth inh 16%.
CCOc1ccc(Nc2nc(N)c(C(=O)c3ccccc3Cl)s2)cc1 was read as Cruzain inh Det -10%, LASV entry inh inconclusive, Cruzain noTriton inconclusive and StopGo reporter 18%.
Screening Cc1cc(OCC(=O)OCC(=O)c2ccc[nH]2)ccc1Cl returned LASV entry inh 5%, SARS PLpro yeast 2%, MARV entry inh 8%[46.1 µM], StopGo reporter -4% and RE007 growth inh -5%.
Screening O=C(Nc1ccc(Cl)cc1)N1CCC(CO)(Cc2ccccc2)CC1 returned LASV entry inh -26%[46.1 µM], SARS PLpro yeast -2%, MARV entry inh inconclusive, StopGo reporter -1%, NS1 function inh -3% and RE007 growth inh 4%.
`Cc1ccc([N+](=O)[O-])cc1NC(=O)CN1CCCCC1` gave Cruzain inh Det 5.9%, LASV entry inh 2%, SARS PLpro yeast -6%, MARV entry inh inconclusive, Cruzain noTriton 1%, StopGo reporter 11%, NS1 function inh -7% and RE007 growth inh -3%.
Screening COCCCNC(=O)C(=O)N/N=C/c1ccc(OCC(=O)Nc2cccc(Cl)c2C)c(OC)c1 returned Cruzain inh Det -14%, LASV entry inh 9%, SARS PLpro yeast 2%, MARV entry inh 1%, Cruzain noTriton 22%, StopGo reporter -22%, NS1 function inh -8% and RE007 growth inh 8%.
`CCOC(=O)CC(SP1(=S)OCC2(CCCCO2)C(C2CCCCO2)O1)C(=O)OCC` (stereo not given) gave LASV entry inh -6%[46.1 µM], MARV entry inh inconclusive, StopGo reporter 17% and RE007 growth inh -5%.
Screening O=S(=O)(Nc1ccccc1N1CCCCC1)c1cccs1 returned LASV entry inh 15%, SARS PLpro yeast 1%, MARV entry inh inconclusive, StopGo reporter -5%, NS1 function inh 2% and RE007 growth inh 1%.
